Bioassay records deposited in PubChem by SRMLSC.
H5N1 CPE: MDCK cell protection from H5N1 avian flu. cytopathic effect, luminescence, 72 h; stronger effect = higher value; no value below 0 was filed and about half of the inactive calls have no number; reference of the scale not given here. inhibition, % at 50 µM. 0.07% of 96,000 active. AID 740, 2007; in the data active = inhibition above about 25%
Active calls of the source: *.

How did O=C(COC(=O)c1cc(S(=O)(=O)N2CCOCC2)ccc1O)NCC1CCCO1 (configuration not stated) do in these assays?
H5N1 CPE: inactive

How did CCOc1ccc(-c2[nH]nc3c2C(c2cccnc2)C(C#N)=C(N)O3)cc1 (configuration not stated) do in these assays?
H5N1 CPE: inactive

Results for CCOC(=O)N1CCC(NC(=O)c2cc(C(=O)NCc3ccc(F)cc3)ccc2CO)CC1 ?
H5N1 CPE: 0.1

Results for Cc1ccc(S(=O)(=O)c2nc(Nc3ccccc3N3CCOCC3)sc2Cl)cc1 ?
H5N1 CPE: 0.9

How did CCCCn1c(O)c(C=NCCCn2ccnc2)c(=O)[nH]c1=O do in these assays?
H5N1 CPE: 0.9

What do the screens show for `COc1ccccc1-n1nnnc1SCc1cc2c(cc1Br)OCO2`?
H5N1 CPE: 0.4

Results for Cc1cc(OC(C)C)nc(-c2ccccc2O)n1 ?
H5N1 CPE: inactive

How did Cc1ccc(-c2nn3c(C)nnc3c3ccccc23)cc1S(=O)(=O)N1CCN(CCO)CC1 do in these assays?
H5N1 CPE: 13

How did O=C(CN1CCCc2ccccc21)NC(=O)NCc1ccco1 do in these assays?
H5N1 CPE: 0.6

Results for CCSc1nnc(NC(=O)CSc2nc(CC)nc3c2c(=O)n(C)c(=O)n3C)s1 ?
H5N1 CPE: 1.5

How did COc1ccc(CCN(C(=O)C(F)(F)F)C(C(=O)NC2CCCC2)c2cccs2)cc1 (configuration not stated) do in these assays?
H5N1 CPE: inactive

Results for Cc1ccc(-c2cc(-c3ccc(Cl)cc3)c(C#N)c(N)n2)o1 ?
H5N1 CPE: inactive

Results for COC(=O)C1C2c3ccccc3OC1(C)N=c1s/c(=C/c3cnn(C)c3C)c(=O)n12 (configuration not stated) ?
H5N1 CPE: 1.5

What do the screens show for `O=C(NNC(=O)c1cccnc1)Nc1ccc(Cl)c(Cl)c1`?
H5N1 CPE: 1.0

Results for Cc1ccc(N(CC(O)CN2CCCC2)S(=O)(=O)c2ccccc2)cc1 (configuration not stated) ?
H5N1 CPE: inactive

Results for COC(=O)C1=C(C)N=C2SC(C#N)=C(N)N2C1c1ccc(OCc2ccccc2)cc1 (configuration not stated) ?
H5N1 CPE: 5.3

How did COc1cccc(-n2cnnn2)c1 do in these assays?
H5N1 CPE: 0.3

Results for CCC(=O)Nc1cc(Cl)ccc1C(=O)O ?
H5N1 CPE: inactive

What do the screens show for `COc1c(C)cccc1C(=O)Nc1ccc(N2CCN(S(C)(=O)=O)CC2)cc1`?
H5N1 CPE: inactive

How did CCOc1ccccc1NC(=O)CSc1nnnn1Cc1ccccc1 do in these assays?
H5N1 CPE: 1.6

What do the screens show for `CCOC(=O)c1c(NC(C)=O)sc2c1CCC(C=O)=C2Sc1ccccc1`?
H5N1 CPE: 1.4

Results for Cc1cc(NC(=O)c2cn(C3CCCCC3)c(=O)c3c2c2ccccc2n3C)no1 ?
H5N1 CPE: 2.0

Results for CCCOC(=O)Cc1c(O)c2ccccc2[nH]c1=O ?
H5N1 CPE: 0.4

How did COCCNC(=O)C1CC(c2ccc(F)cc2)=NO1 (configuration not stated) do in these assays?
H5N1 CPE: inactive

What do the screens show for `Cc1ccc(C)c(NC(=O)C2CC(=O)N(C(C)C)C2)c1` (configuration not stated)?
H5N1 CPE: inactive

How did CCc1c(C)nc(SCC(=O)Nc2c(C)n(C)n(-c3ccccc3)c2=O)[nH]c1=O do in these assays?
H5N1 CPE: 0.9

How did O=C(NCCCN1CCCC1=O)c1cccc(C(F)(F)F)c1 do in these assays?
H5N1 CPE: 0.8

What do the screens show for `CN(CC(=O)N1CCc2ccccc21)S(=O)(=O)c1cccs1`?
H5N1 CPE: inactive

How did CSc1nc2ccc(S(=O)(=O)N3CCCC3)cc2s1 do in these assays?
H5N1 CPE: inactive

Results for CCOC(=O)CSc1nnc(Cc2cc(=O)[nH]c(=O)[nH]2)n1-c1cccc(OC)c1 ?
H5N1 CPE: 0.3

How did CCC(C)n1cnc2c(c1=O)c1nc3ccccc3nc1n2Cc1ccccc1OC (configuration not stated) do in these assays?
H5N1 CPE: inactive

What do the screens show for `Cc1ccc2c(c1)N(Cc1ccccn1)C(=O)C(C)O2` (configuration not stated)?
H5N1 CPE: 0.1

Results for CC(Sc1nc2c(c(=O)n(C)c(=O)n2C)n1Cc1cc2c(cc1Cl)OCO2)C(=O)O (configuration not stated) ?
H5N1 CPE: 2.8

How did N#CC1=C(N)SC(N)=C(C#N)C1CCC1CCCCC1 do in these assays?
H5N1 CPE: inactive

Results for CCOC(=O)CN1CC23C=CC(O2)C(C(=O)NCc2ccc(C)cc2)C3C1=O (configuration not stated) ?
H5N1 CPE: 1.0

How did CN(C)c1ccc(NC(=O)CSc2nnc(-c3cccs3)n2Cc2ccco2)cc1 do in these assays?
H5N1 CPE: inactive

How did Cc1ccc(CNC(=O)c2cccc(-n3cnnn3)c2)cc1 do in these assays?
H5N1 CPE: inactive

Results for O=C(N/N=C/c1cccc(OC2CSC2)c1)c1ccccc1O ?
H5N1 CPE: 2.6

What do the screens show for `CCOC(=O)CSc1nc(C(C)(C)C)cc(C(F)(F)F)c1C#N`?
H5N1 CPE: 0.8

Results for CCn1c(SCC(=O)NCc2cccs2)nnc1-c1cccs1 ?
H5N1 CPE: 1.4

Results for Cc1nc2c(-c3ccc(F)cc3)c(C)nn2c(C)c1CCC(=O)NC(C)CCc1ccco1 (configuration not stated) ?
H5N1 CPE: inactive

How did CCCN1C(=O)c2cc(C(=O)NC3CCCCCC3)ccc2C1O (configuration not stated) do in these assays?
H5N1 CPE: inactive

Results for CC1(C)Cc2c(sc3nc(-c4cccs4)n(N)c(=O)c23)CO1 ?
H5N1 CPE: inactive

What do the screens show for `Cn1c2ccccc2c(=O)n2c(=O)c3ccccc3cc12`?
H5N1 CPE: inactive

What do the screens show for `CC1=Nn2c(nnc2-c2cc(-c3ccccc3)n[nH]2)SC1`?
H5N1 CPE: inactive

What do the screens show for `COc1ccc(NC(=O)CSc2nnc(CNc3ccc(F)cc3)o2)c(OC)c1`?
H5N1 CPE: 0.5

What do the screens show for `COc1cc(C2C(C(C)=O)=C(C)Nc3ncnn32)ccc1O` (configuration not stated)?
H5N1 CPE: 1.2

How did Cc1c(C(=O)NCCCN2CCOCC2)sc2nc(-c3ccc(F)cc3)cn12 do in these assays?
H5N1 CPE: inactive

What do the screens show for `CCN(CC)S(=O)(=O)c1ccc(Br)c(OC)c1`?
H5N1 CPE: 0.8

What do the screens show for `COc1cc(C(=O)N2CCN(c3cc(Cl)ccc3Cl)CC2)cc(OC)c1OC`?
H5N1 CPE: inactive

How did O=C(Oc1c(CN2CCOCC2)cc(Cl)c2cccnc12)c1ccc(F)cc1 do in these assays?
H5N1 CPE: inactive

What do the screens show for `COc1ccc(CCNC(=O)c2ccc3nc(-c4ccco4)c(-c4ccco4)nc3c2)cc1OC`?
H5N1 CPE: 0.1

How did Cn1c(Cn2c(=O)sc3ccccc32)nnc1SCC(=O)NCc1ccco1 do in these assays?
H5N1 CPE: 0.7

Results for CCN(CC)C(=O)CSc1nc(N)c2c3c(sc2n1)CC(C)CC3 (configuration not stated) ?
H5N1 CPE: inactive

How did CC(O)c1c(OCc2ccccc2)ncnc1OCc1ccccc1 (configuration not stated) do in these assays?
H5N1 CPE: 3.9

Results for COc1ccccc1NC1=C(Cl)C(=O)N(C2CCCCC2)C1=O ?
H5N1 CPE: inactive

Results for O=C(Nc1nnc(-c2ccc3c(c2)CCCC3)o1)c1ccccc1 ?
H5N1 CPE: 5.3

What do the screens show for `Cc1ccc(C2/C(=C(/O)c3ccc(OC(C)C)cc3)C(=O)C(=O)N2CCN2CCOCC2)cc1` (configuration not stated)?
H5N1 CPE: inactive

What do the screens show for `Cc1ccc(SCc2nc(-c3ccccn3)no2)cc1`?
H5N1 CPE: 0.6

What do the screens show for `CCC(C)[C@H](NC(=O)NCc1ccccc1Cl)C(=O)O` (some centres not stated)?
H5N1 CPE: inactive

What do the screens show for `O=C(CCC(=O)OCCCC(F)(F)C(F)(F)F)Nc1ccccc1`?
H5N1 CPE: 0.1

What do the screens show for `COc1ccc(-c2nc(-c3ccccc3)nc(Cl)c2C#N)cc1`?
H5N1 CPE: inactive

How did Cc1cc(NS(=O)(=O)c2ccc(NC(=O)c3ccoc3C)cc2)nc(C)n1 do in these assays?
H5N1 CPE: inactive

How did CCOC(=O)c1ccc(N2C(=O)CC(N3CCN(Cc4ccccc4)CC3)C2=O)cc1 (configuration not stated) do in these assays?
H5N1 CPE: 0.9

Results for O=C(NCCCN1CCC(Cc2ccccc2)CC1)C1CCC(=O)N1C1CCCC1 (configuration not stated) ?
H5N1 CPE: 1.3

What do the screens show for `CC(=O)OC1COC(N2CCc3cc(Br)c([N+](=O)[O-])cc32)C(OC(C)=O)C1OC(C)=O` (configuration not stated)?
H5N1 CPE: inactive

How did O=C(NCc1cccs1)C(Cc1ccccc1)n1cccc1 (configuration not stated) do in these assays?
H5N1 CPE: inactive

Results for Clc1ccc2nc(CSc3nc4ccccc4o3)cn2c1 ?
H5N1 CPE: 0.8

How did O=C(N/N=C/c1cccc(O)c1)c1csc2ccccc12 do in these assays?
H5N1 CPE: 7.8

How did Cc1nn(-c2ccccc2)c2nc(N)c(C#N)c(-c3ccc(F)cc3)c12 do in these assays?
H5N1 CPE: 0.2

What do the screens show for `CCOC(=O)C1CCN(CCC(=O)Nc2cccc(Cl)c2C)CC1`?
H5N1 CPE: inactive

How did O=C(Nc1ccccc1)N1CCSc2cc(Cl)ccc21 do in these assays?
H5N1 CPE: inactive

What do the screens show for `CCCc1cc(=O)[nH]c(SCCOc2ccc(Cl)cc2)n1`?
H5N1 CPE: 0.1

What do the screens show for `Cn1ccnc1C(O)(c1nnc(-c2ccccc2)o1)C(F)(F)F` (configuration not stated)?
H5N1 CPE: 0.8

How did CCCCn1c(O)c(C(CC)=NCCCN(C)C)c(=O)[nH]c1=O do in these assays?
H5N1 CPE: 0.6

Results for Cc1ccc(C(NC(N)=O)c2ccccc2C)cc1 (configuration not stated) ?
H5N1 CPE: inactive

What do the screens show for `CCOC(=O)C1=C(C)Nc2nc(SCC(=O)OC)nn2C1c1cc(F)cc(F)c1` (configuration not stated)?
H5N1 CPE: 0.0

How did COC(=O)c1ccc(Sc2ccccc2NS(=O)(=O)c2ccc(NC(C)=O)cc2)nc1 do in these assays?
H5N1 CPE: 0.1

How did CCOc1ccc(-c2nc(S(=O)(=O)c3ccccc3)c(NCc3cccnc3)o2)cc1 do in these assays?
H5N1 CPE: inactive

How did COc1ccc(NC(=O)CSc2nnc(-c3cccnc3)o2)cc1 do in these assays?
H5N1 CPE: 0.3

What do the screens show for `Cc1cccc(OC(=O)C2C(c3ccccc3)C(C(=O)O)C2c2ccccc2)c1` (configuration not stated)?
H5N1 CPE: 0.3

How did COc1ccc(N/C(=C(/C(Cl)=C(Cl)Cl)[N+](=O)[O-])n2nnc3ccccc32)cc1 do in these assays?
H5N1 CPE: inactive

Results for CCOC(=O)c1cnc(Nc2nc3ccccc3o2)nc1CN1CCN(C)CC1 ?
H5N1 CPE: 3.2

What do the screens show for `O=C(CN1C(=O)C2CC=CCC2C1=O)OCCN1C(=O)c2ccccc2C1=O` (configuration not stated)?
H5N1 CPE: 1.0

How did CCOC(=O)CCP(=O)(O)C(O)c1ccccc1 (configuration not stated) do in these assays?
H5N1 CPE: inactive

What do the screens show for `Cc1cc(C)n(CC(C)O)c(=O)c1C#N` (configuration not stated)?
H5N1 CPE: 0.1

How did COc1ccc(Nc2nnc(Cc3ccccc3)c(=O)[nH]2)c(OC)c1 do in these assays?
H5N1 CPE: inactive

What do the screens show for `COc1cc(CO)cc(-c2cc(CO)cc(OC)c2OC)c1OC`?
H5N1 CPE: inactive

What do the screens show for `CCOc1cc(/C=N\NC(=O)Cn2nc([N+](=O)[O-])cc2C)ccc1OCc1cccc2ccccc12`?
H5N1 CPE: 0.3

How did COc1nc(-c2cccs2)cc(-c2ccc(C)cc2)c1C#N do in these assays?
H5N1 CPE: inactive

A run of entries from the list above, for reference:
How did O=C(N/N=C/c1cccc(O)c1)c1csc2ccccc12 do in these assays?
H5N1 CPE: 7.8

How did Cc1nn(-c2ccccc2)c2nc(N)c(C#N)c(-c3ccc(F)cc3)c12 do in these assays?
H5N1 CPE: 0.2

What do the screens show for `CCOC(=O)C1CCN(CCC(=O)Nc2cccc(Cl)c2C)CC1`?
H5N1 CPE: inactive

How did O=C(Nc1ccccc1)N1CCSc2cc(Cl)ccc21 do in these assays?
H5N1 CPE: inactive

What do the screens show for `CCCc1cc(=O)[nH]c(SCCOc2ccc(Cl)cc2)n1`?
H5N1 CPE: 0.1

What do the screens show for `Cn1ccnc1C(O)(c1nnc(-c2ccccc2)o1)C(F)(F)F` (configuration not stated)?
H5N1 CPE: 0.8

How did CCCCn1c(O)c(C(CC)=NCCCN(C)C)c(=O)[nH]c1=O do in these assays?
H5N1 CPE: 0.6

Results for Cc1ccc(C(NC(N)=O)c2ccccc2C)cc1 (configuration not stated) ?
H5N1 CPE: inactive

What do the screens show for `CCOC(=O)C1=C(C)Nc2nc(SCC(=O)OC)nn2C1c1cc(F)cc(F)c1` (configuration not stated)?
H5N1 CPE: 0.0

How did COC(=O)c1ccc(Sc2ccccc2NS(=O)(=O)c2ccc(NC(C)=O)cc2)nc1 do in these assays?
H5N1 CPE: 0.1

How did CCOc1ccc(-c2nc(S(=O)(=O)c3ccccc3)c(NCc3cccnc3)o2)cc1 do in these assays?
H5N1 CPE: inactive

How did COc1ccc(NC(=O)CSc2nnc(-c3cccnc3)o2)cc1 do in these assays?
H5N1 CPE: 0.3

What do the screens show for `Cc1cccc(OC(=O)C2C(c3ccccc3)C(C(=O)O)C2c2ccccc2)c1` (configuration not stated)?
H5N1 CPE: 0.3

How did COc1ccc(N/C(=C(/C(Cl)=C(Cl)Cl)[N+](=O)[O-])n2nnc3ccccc32)cc1 do in these assays?
H5N1 CPE: inactive

Results for CCOC(=O)c1cnc(Nc2nc3ccccc3o2)nc1CN1CCN(C)CC1 ?
H5N1 CPE: 3.2

What do the screens show for `O=C(CN1C(=O)C2CC=CCC2C1=O)OCCN1C(=O)c2ccccc2C1=O` (configuration not stated)?
H5N1 CPE: 1.0

How did CCOC(=O)CCP(=O)(O)C(O)c1ccccc1 (configuration not stated) do in these assays?
H5N1 CPE: inactive

What do the screens show for `Cc1cc(C)n(CC(C)O)c(=O)c1C#N` (configuration not stated)?
H5N1 CPE: 0.1

How did COc1ccc(Nc2nnc(Cc3ccccc3)c(=O)[nH]2)c(OC)c1 do in these assays?
H5N1 CPE: inactive

This is a subset. The share of hits here may be higher or lower than overall.
